KAT2A inh – inhibitors of human GCN5L2 histone acetyltransferase | AID 504327 | Potency, µM (series often up to 58.9 µM), for inactives: at the highest dose activity change, negative = inhibition, usual class: inhibitors | 0.21% of 390,000 active | Q92830 | GCN5L2 HAT assay, ThioGlo1 CoA-SH fluorescence; active = well fitted inhibition curve with a large enough effect; inconclusive = small, poorly fitted or top-dose-only effect, or another doubt; inactive = no such curve, though single readings can be large or run the other way
Target sequence (Q92830 whole entry, looked up): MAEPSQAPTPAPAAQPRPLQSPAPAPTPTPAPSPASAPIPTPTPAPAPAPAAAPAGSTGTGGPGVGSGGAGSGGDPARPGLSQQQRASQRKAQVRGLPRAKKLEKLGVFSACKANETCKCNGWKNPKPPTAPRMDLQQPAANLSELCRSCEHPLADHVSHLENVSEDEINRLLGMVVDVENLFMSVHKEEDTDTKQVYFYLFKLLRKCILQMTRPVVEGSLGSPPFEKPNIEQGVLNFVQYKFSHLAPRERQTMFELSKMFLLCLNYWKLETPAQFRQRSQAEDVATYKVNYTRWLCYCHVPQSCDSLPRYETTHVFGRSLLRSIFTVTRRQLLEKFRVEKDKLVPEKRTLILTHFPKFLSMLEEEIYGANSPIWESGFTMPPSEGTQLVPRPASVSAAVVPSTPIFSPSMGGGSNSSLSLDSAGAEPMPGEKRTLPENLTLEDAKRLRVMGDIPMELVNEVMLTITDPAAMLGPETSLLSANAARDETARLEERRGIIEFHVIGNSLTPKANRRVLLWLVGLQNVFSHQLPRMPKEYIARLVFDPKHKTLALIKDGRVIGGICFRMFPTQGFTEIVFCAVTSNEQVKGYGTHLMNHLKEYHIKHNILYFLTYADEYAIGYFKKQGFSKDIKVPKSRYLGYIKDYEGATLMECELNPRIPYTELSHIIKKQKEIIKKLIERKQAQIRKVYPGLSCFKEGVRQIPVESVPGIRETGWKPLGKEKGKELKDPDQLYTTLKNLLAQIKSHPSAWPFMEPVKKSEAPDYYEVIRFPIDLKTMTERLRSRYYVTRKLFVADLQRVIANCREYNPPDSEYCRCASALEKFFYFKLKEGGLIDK
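GCN5L2 (20 nM) in 50mM HEPES pH 7.5, 0.1mM EDTA, 0.01% Tween-20 preincubated 15 min with compounds at room temperature. Reaction started with H3(1-25) 75uM, acetyl-CoA 70uM, ThioGlo1 50uM; CoA-thiol fluorescence (Ex340/Em540) read at 0 and 20 min.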
The depositor's hits bear a star; ? = inconclusive; [ ] = dose if it differs, or a comment. % is set by controls: 0 for no effect and ±100 for the full control effect; potency is the fitted concentration of half-maximal effect.

A first look (two entries):
SMILES	KAT2A inh
Cc1c(C(=O)C(=O)N2c3ccccc3CC2C)c2ccccc2n1C (configuration not stated)	-11.2%
CCCn1c(N)c(N2CCCCC2)c(=O)n(CC(=O)Nc2ccccc2)c1=O	0.0%

The whole of this part, from the start:
SMILES	KAT2A inh
Cc1c(C(=O)C(=O)N2c3ccccc3CC2C)c2ccccc2n1C (configuration not stated)	-11.2%
CCCn1c(N)c(N2CCCCC2)c(=O)n(CC(=O)Nc2ccccc2)c1=O	0.0%
Nc1ccnn1Cc1cccs1	-5.3%
Cc1cc(NC(=O)Cc2ccccc2)nc2c1c(=O)oc1ccccc12	-1.1%
c1ccc2c(c1)oc1c(N3CCOCC3)ncnc12	-3.5%
Cc1ccc(C)c(OCCn2cc(C(=O)c3cccs3)c3ccccc32)c1	-10.1%
CCN(c1cccc(C)c1)S(=O)(=O)c1ccc2c(c1)NC(=O)CS2	-6.3%
COc1ccc(/C=N/N2CCN(C3c4ccccc4-c4ccccc43)CC2)cc1OC	1.9%
CN(c1ccc(C(=O)O)cc1)S(=O)(=O)c1ccc(Cl)cc1	-0.5%
Cc1nn(Cc2ccccc2)c(=O)n1N(C)c1ncc(C(F)(F)F)cc1Cl	-2.8%
CC(C)c1csc(CN2CCCC(CCC(=O)NCc3ccccc3F)C2)n1 (configuration not stated)	0.4%
CN1C(=O)C(C)(C)c2cc(S(=O)(=O)NCC3CCC(C(=O)NCc4ccc(F)cc4)CC3)ccc21 (configuration not stated)	-12.6%
CCOC(=O)C1CCCN(C(=O)c2cc3cc(Br)ccc3oc2=O)C1 (configuration not stated)	21.9%
COCC(=O)NNC(=O)c1ccccc1OC	-5.2%
Cc1ccc(S(=O)(=O)CCC(=O)OCC(=O)N2CC(=O)Nc3ccccc32)cc1	-4.4%
CCO[C@@H]1OC(C(=O)N2CCN(Cc3ccc4c(c3)OCO4)CC2)=C[C@H](c2ccc(Br)cc2)[C@H]1CCCO	-6.4%
CCN(CC)C(=O)CSc1nc2cccnc2n1-c1ccccc1OC	1.1%
CCOc1ccc(OCC)c(-n2cnnn2)c1	-3.2%
O=S(=O)(c1ccc(S(=O)(=O)N2CCC3(CC2)OCCO3)cc1)N1CCCC1	-5.9%
COC(=O)c1sc2nc3c(cc2c1N)CCCC3	-5.8%
CCOC(=O)C1=C(C)NC2=C(C(=O)CCC2)C1c1ccc(O)c(OCC)c1 (configuration not stated)	2.5%
Cc1ccc(-c2cnc(NCc3cc4c(cc3[N+](=O)[O-])OCO4)n2C)cc1C	-3.2%
COc1ccc(/C=C2\SC(=N)N(c3ccc(F)cc3)C2=O)cc1OC	-16.5%
Cc1cc(NC(=O)c2ccc(NC(=O)c3cccs3)cc2)no1	-5.7%
O=C(O/N=C1\CCS(=O)(=O)c2sccc21)C1CC1	1.5%
SMILES	KAT2A inh
COc1ccc(OCC(=O)NNC(=O)C2CCCO2)cc1 (configuration not stated)	-4.5%
COc1ccc(N2CCN(S(=O)(=O)c3cc(C)ccc3OC)CC2)cc1	-13.6%
CC(C)c1ccc(NC(=O)COc2ccccc2)cc1	-0.8%
O=C(c1ccco1)N1CCN(C(=S)Nc2cccc([N+](=O)[O-])c2)CC1	-10.2%
CN(CC(=O)Nc1ccccc1Br)C(=O)COc1ccc2ccccc2c1	2.0%
COc1cc(CN2CCc3nc(Nc4ccc5c(c4)OCCO5)ncc3C2)cc(OC)c1OC	-0.4%
CCSc1nnc(CSc2ncccn2)n1C	-2.7%
Cc1cccc(C)c1OCCn1c(CCNC(=O)C2CCCCC2)nc2ccccc21	-10.0%
COc1ccc(Nc2nc(C(=O)N3CCc4cc(OC)c(OC)cc4C3)cs2)cc1	-6.2%
C=CCN1C(=O)C2C3CC(=O)C(c4ccccc43)C2C1=O (configuration not stated)	-1.4%
Cc1ccc(C(=O)NC(C)C(c2cccs2)N2CCCC2)s1 (configuration not stated)	-5.5%
C=CCc1cccc2cc(C(=O)Nc3ccc(NC(C)=O)cc3)c(=O)oc12	0.0%
Cc1cc(NC(=O)CSc2nc3c(cc2C#N)CCC3)no1	-2.3%
COc1ccc(CNC(=O)c2cc(-c3ccc(Br)s3)nc3ccccc23)cc1	0.1%
CCc1cccc(NC(=O)C(CC)n2nc(C)c3sc4ccccc4c3c2=O)c1 (configuration not stated)	-5.5%
CC1=CC(=O)C2=C(C)CC[C@@H]3[C@@H](OC(=O)[C@H]3C)[C@H]12	8.3%[21.4 µM]
CC(=O)Nc1nnc(SCc2cc(=O)c3cc(C)ccc3[nH]2)s1	-9.4%
CC(C)(C)C(C(=O)O)N1CCS(=O)(=O)CC1 (configuration not stated)	-3.0%
Cc1cc(OC(C)C(=O)N/N=C/CC(C)c2ccccc2)ccc1Cl (configuration not stated)	-1.3%
COc1ccccc1NS(=O)(=O)c1cccc(NC(=O)Nc2ccc(Cl)cc2)c1	-7.3%
CCN1CCN(C(=S)Nc2ccsc2C(=O)OC)CC1	-1.1%
COc1ccc(NC(=O)Cn2c3ccccc3c3nc4n(c(=O)c32)CCS4)cc1	-4.3%
NC(=O)CN1CCOCCOCCOCCOCCOCC1	-18.1%
COCCCNC(=S)NC(=O)c1ccccc1	0.3%
O=C(CCN1C(=O)c2ccccc2C1=O)Nc1ccc(-c2cn3ccsc3n2)cc1	-0.9%
SMILES	KAT2A inh
CN(C(=O)CSc1nnc(NC(=O)Nc2ccccc2)s1)c1ccccc1	-2.5%
Cc1ccc(CN2COc3ccc4c(-c5ccccc5)cc(=O)oc4c3C2)cc1	-4.7%
O=C(NCN1C(=O)C2C3C=CC(C3)C2C1=O)Nc1nncs1 (configuration not stated)	-2.4%
CCN(CC)C(=O)OCCc1cc2ccccc2c(=O)o1	-3.4%
Cc1ccc(NC(=O)CN(C)C(=O)CCOc2ccccc2C)cc1	1.3%
COC(=O)Cc1cc(=O)n2[nH]c(C(F)(F)F)nc2n1	-4.1%
Cc1ccc(S(=O)(=O)N(C)C)cc1NC(=O)COC(=O)CN1C(=O)c2ccccc2C1=O	-4.3%
COc1cccc(-n2c(=O)[nH]cc(C(=O)Nc3ccc(NC(C)=O)cc3)c2=O)c1	-10.3%
CN(C)CCCN(C(=O)c1sc2ccccc2c1Cl)c1nc2ccc(F)cc2s1	-2.6%
Cc1ccc(OCCCn2cc(C#N)c3ccccc32)cc1	-14.6%
O=C(c1cccc(-c2ccccc2F)c1)N1CC[C@@H](N2CCC(O)CC2)[C@H](O)C1	-4.5%
CCC(C)NC(=O)c1ccc(CSc2nc3ccncc3n2Cc2ccc(F)cc2)cc1 (configuration not stated)	1.2%
COc1cccc(C2=CC(=O)C[C@H](c3ccc(F)cc3)C2)c1	-1.7%
Cc1cccc(N2N=C(C(=O)N3CC(=O)Nc4ccccc43)CCC2=O)c1	-9.7%
COc1ccc(NC(=O)CSc2nncs2)cc1OC	-3.9%
COc1ccc(-c2cc(=O)c3ccccc3[nH]2)cc1	-6.1%[88.6 µM]
COc1ccccc1C(C)NCC(=O)Nc1ccccc1C(F)(F)F (configuration not stated)	-4.6%
Cc1noc(C)c1NC(=O)Nc1cccc2c1O[C@H](CN(C)C(=O)Nc1ccc(C(F)(F)F)cc1)[C@@H](C)CN([C@H](C)CO)C2=O	-3.1%
CCOc1ccc(-c2nc3c(c(SCC(=O)N4CCCCC4)n2)Cc2cccc(OC)c2O3)cc1	3.6%
Cc1ccc(C2C=NN(c3ccccc3)C2=O)cc1 (configuration not stated)	-1.9%
COCc1cc(C)nc(Oc2ccccc2)c1C#N	4.7%
CCN(CC1CCCO1)C(=O)c1cc(COc2ccc(F)cc2F)on1 (configuration not stated)	0.1%
COc1ccc(NS(=O)(=O)N2CCOCC2)cc1	0.4%
FC(F)(F)c1cc(-c2ccco2)nc(-n2nc(C(F)(F)F)cc2C2CC2)n1	-19.2%
COc1ccc(/C=C/C(=O)NCCc2nc3ccccc3[nH]2)cc1	-10.5%

As entered above:
Cc1cccc(N2N=C(C(=O)N3CC(=O)Nc4ccccc43)CCC2=O)c1 @ KAT2A inh = -9.7%
COCCCNC(=S)NC(=O)c1ccccc1 @ KAT2A inh = 0.3%

6 of the entries above in order of their number in KAT2A inh, high to low:
Molecule	KAT2A inh
COc1cc(CN2CCc3nc(Nc4ccc5c(c4)OCCO5)ncc3C2)cc(OC)c1OC	-0.4%
CC(C)c1ccc(NC(=O)COc2ccccc2)cc1	-0.8%
Cc1cc(NC(=O)CSc2nc3c(cc2C#N)CCC3)no1	-2.3%
O=C(c1cccc(-c2ccccc2F)c1)N1CC[C@@H](N2CCC(O)CC2)[C@H](O)C1	-4.5%
Cc1ccc(C(=O)NC(C)C(c2cccs2)N2CCCC2)s1 (configuration not stated)	-5.5%
Cc1ccc(OCCCn2cc(C#N)c3ccccc32)cc1	-14.6%

New compounds follow:
SMILES	KAT2A inh
CCOc1cc(C2/C(=C(/O)c3ccc(OC)cc3)C(=O)C(=O)N2CC2CCCO2)ccc1O (configuration not stated)	-6.3%
CC(C)=CCC/C(C)=C/C=N/NC(=O)c1ccc([N+](=O)[O-])cc1	2.2%
COc1ccc(N2C(=O)NC(NC(=O)c3cccnc3)(C(F)(F)F)C2=O)cc1 (configuration not stated)	1.3%
CC(C)OC(=O)C(CC(=O)O)NCc1ccccc1 (configuration not stated)	?
CCc1ccccc1NC(=O)c1ccc2nc(C(C)C)oc2c1	-10.1%
O=C(OCc1ccccc1)N1CCOCCOCCN(C(=O)OCc2ccccc2)CCOCCOCC1	-6.5%
COc1ccc(S(=O)(=O)Nc2ccc3c(c2)n(C)c(=O)n3C)cc1C	-1.3%
CC[n+]1ccc(C)c2cc(S(=O)C(F)(F)F)ccc21 (configuration not stated)	-2.2%
Cc1ccc2c(c1)[nH]c1c(=O)n(CCCN3CCOCC3)cnc12	0.5%
Cc1nn(Cc2ccccc2)c(Cl)c1/C=N/NC(=O)CNc1cccc(C(F)(F)F)c1	2.5%
Cc1ccc(OC(=O)Nc2ccccc2)cc1	-1.7%
CC(NC(=O)c1ccco1)C(=O)N1CCN(C(c2ccccc2)c2ccccc2)CC1 (configuration not stated)	-2.5%
Cc1cnc(C(=O)OCC(=O)c2ccc(Br)s2)cn1	-18.3%
Cc1ccc(CC2CC(=O)N(c3ccncc3)C2=O)cc1 (configuration not stated)	-2.7%
CC(=O)Nc1ccc(NC(=O)CCn2c(=O)oc3ccccc32)cc1	-4.2%
C=CCn1c(CCCNC(=O)CCC)nc2ccccc21	-2.1%
CCOC(=O)Cc1nnc(NC(=O)CSc2nnc3c(n2)[nH]c2ccccc23)s1	-16.3%
CCOc1ccc(N(CC(=O)NCc2ccc(F)cc2)C(=O)CCC(=O)Nc2nccs2)cc1	-14.2%
Cc1ccccc1OCC(=O)OCC(=O)c1c[nH]c2ccccc12	-18.3%
Cc1ccc(NC(=S)NC(=O)c2ccc(-c3ccccc3)cc2)c(C)c1	-1.0%
O=C(CC1SC(=Nc2ccc(OC(F)F)cc2)N(CCC2=CCCCC2)C1=O)Nc1ccccc1F (configuration not stated)	-14.2%
CN(C)CCCNC(=O)C[C@H]1C[C@H](C(=O)N2CCCCC2)[C@@]2(C)c3[nH]c4cc(CCC(=O)N(C)C)ccc4c3CCN2C1=O	-2.6%
C=CCNC(=O)CC(=O)N/N=C/c1cccc(Br)c1	-7.9%
O=C(Nc1nc(-c2ccccc2)c(-c2ccccc2)s1)c1ccc(S(=O)(=O)N2CCCCC2)cc1	-1.7%
CC(=O)Nc1cccc(C(=O)OCC(=O)NNC(=O)c2ccc([N+](=O)[O-])cc2)c1	-0.9%
SMILES	KAT2A inh
COc1ccc(C(C[N+](=O)[O-])c2c(C)cc3ccccn23)c(OC)c1 (configuration not stated)	-4.2%
CCOc1cc(CNCC2CCCN2CC)cc(Cl)c1OC (configuration not stated)	-2.6%
CCCC(=O)Nc1sc(C(=O)Nc2cccc(N)c2)c(C)c1C(=O)OC	1.9%
FC(F)(F)c1cccc(Nc2nc(N3CCCC3)nc(N3CCCC3)n2)c1	-18.4%
Cc1ccc(N(C(=O)c2ccco2)C2C=CS(=O)(=O)C2)cc1 (configuration not stated)	-10.8%
O=C(OCC(=O)N1CCc2ccccc21)c1cc(S(=O)(=O)N2CCOCC2)ccc1F	-7.4%
COc1ccc(NC(=O)CSc2nnc(Cc3ccccc3)c(=O)n2N)c(OC)c1	-1.1%
CCCCCCc1nc(C(N)=O)c2[nH]c(=O)n(-c3ccccc3F)c2n1	-3.3%
CC(C)C(c1nnnn1Cc1ccc(F)cc1)N1CCC(C(N)=O)CC1 (configuration not stated)	-10.4%
CC(C)NC(=O)CSc1ccccc1C(=O)NCc1ccc2c(c1)OCO2	0.0%
COC(=O)c1ccc(OC(=O)c2nn(C)cc2Cl)c(OC)c1	0.7%
CCCc1cc(C(=O)Nc2ccc(C#N)cc2)no1	-6.6%
Cc1cccc(C)c1NC(=O)CC(NCc1ccco1)C(=O)O (configuration not stated)	?
CCOc1ccccc1NC(=O)c1cnc2n(c1=O)CCS2	-5.8%
Cc1cc(C(=O)N/N=C/c2ccc(-c3ccc(C)c(Cl)c3)o2)n[nH]1	-0.5%
CCOCCCNC(=O)C(NC(=O)c1ccc(NC(C)=O)cc1)c1ccc(OC)cc1 (configuration not stated)	1.6%
O=C(CSc1nnnn1-c1ccc(Cl)cc1)N1CCNC1=O	-4.1%
COc1ccc(-n2c(Cc3ccccc3)nnc2SCc2nc(-c3cccs3)no2)cc1	-0.4%
COc1ccc([N+](=O)[O-])cc1NC(=O)c1ccc(Br)s1	-2.6%
CN(C)CCNc1ncnc2c1cnn2-c1ccc(Cl)cc1	-4.3%
CCN(c1cccc2ccccc12)S(=O)(=O)c1cccs1	-7.3%
O=C(C[C@H]1C[C@H](C(=O)N2CCCCC2)[C@@]2(CCc3ccccc3)c3[nH]c4ccc(Cl)cc4c3CCN2C1=O)NCCC1=CCCCC1	1.2%
CCCCn1nc2cc(C(=O)NCCCCc3ccccc3)ccc2c1OCC	?
CCCCn1cc2c(c1-c1ccc(Br)cc1)c(=O)n(C)c(=O)n2C	-6.9%
O=C(O)C1CC=CCC1C(=O)NNc1ccccc1 (configuration not stated)	-0.2%
CCc1nnc(NC(=O)C2CC(=O)N(CCc3ccccc3)C2)s1 (configuration not stated)	-0.5%

High-throughput results from PubChem.

This is a subset; most or all hits stand in other tables.
